Sa helicase inh: inhibitors of S. aureus replicative helicase, primary screen, biochemical, fluorescence unwinding readout. replicative DNA helicase (DnaC/DnaB), Staphylococcus aureus. purified S. aureus helicase, fluorescence unwinding assay; about half of the hits fall short of the stated cut. actives 0.05% (n = 120,000). inhibition, %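 (tested at about 80 µM)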;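 active means both duplicates at 50% or more, or one of them with a favoured structure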;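 further: 0% = mean of negative control wells and 100% = mean of positive control wells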
MgrA-DNA mod: S. aureus MgrA activity modulators, primary screen, biochemical, S. aureus Newman, fluorescence polarization | MgrA-DNA binding | inhibition, %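 (about 10 µg/mL by stock and volumes)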 | actives 0.13% (n = 84,000);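 active means above 50% in either of two replicates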;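 further: 0% = protein plus DNA without compound and 100% = DNA alone without protein; higher means less MgrA bound to DNA so lower polarization; one replicate is shown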
An asterisk follows results filed as active; . = no result given; & = joins results of further samples.

smiles | Sa helicase inh | MgrA-DNA mod
S=C1NCN(Cc2ccc3c(c2)OCO3)CN1 | 6 | 0.1
OCCN1C[C@@H](O)[C@@H](O)C(O)C1CO (stereo partly specified) | . | 0.6
CCOC(=O)c1ccc(C(=O)OCC)nc1 | 0 | -0.6
Cc1ccc(N2CC(C(=O)O)CC2=O)cc1 (stereo unspecified) | -24 | -2.1
CN(C)/N=C/C=C1\CCC/C(=C\C=N\N(C)C)C1=O | -76 | .
Cn1nc(OCC(=O)N2CCOCC2)cc1C(F)(F)F | . | -0.3
CN1OC2C(=O)N(c3ccccc3)C(=O)C2C1c1ccc(F)cc1 (stereo unspecified) | 0 | -1.0
Cc1cc(C)n2nc(SCC(=O)N(C)c3c(N)n(Cc4ccccc4)c(=O)[nH]c3=O)nc2n1 | 4 | .
CC(C)CNC(=O)C1CCN(S(=O)(=O)c2ccc(-n3cnnn3)cc2)CC1 | 9 | 0.6
Cc1ccc(NC(=O)/C(C#N)=C\c2ccc(Sc3nc4ccccc4[nH]3)o2)cc1C | 15 | 1.1
O=C(CSc1ccccc1Cl)c1cc2ccccc2o1 | 9 | 3.5
COc1ccccc1Cn1nccc1N | 7 | 1.1
O=C1OC(Nc2ccc(C(F)(F)F)cc2Cl)c2ccccc21 (stereo unspecified) | . | 0.9
CS(=O)(=O)c1nc(-c2ccc(Cl)cc2)n[nH]1 | -3 | 2.5
CCOc1ccc(C2CNC(=O)C2C(=O)OC)cc1OCC (stereo unspecified) | 13 | .
CC1CCCCN1C(=O)CSc1nc2ccccc2n1-c1ccccc1 (stereo unspecified) | -6 | 0.0
Cc1ccc(CO/N=C/c2cccs2)cc1 | -21 | .
Cc1ccccc1OC(=O)Cn1c(C(F)(F)F)nc2ccccc21 | . | 3.2
O=C(c1cnn2c(C(F)(F)F)cc(-c3ccccc3)nc12)N1CCCC1 | 6 | -2.8
COc1ccc(-n2nc(C)cc2Nc2ccccc2C(=O)O)cc1 | . | 3.3
CCN=C1SC(CC(=O)Nc2ccccc2Cl)C(=O)N1CC (stereo unspecified) | . | -0.5
O=C1CC(Sc2cccs2)C(=O)N1c1ccccc1 (stereo unspecified) | . | -0.1
CCC(CO)Nc1nc(C)nc2sc3c(c12)CCC3 (stereo unspecified) | 7&11 | .
Cc1csc2ncnc(Sc3ccccc3NS(=O)(=O)c3ccc(F)cc3)c12 | . | -0.2
N#Cc1ccccc1OCc1nc2ccccc2o1 | 34 | .
O=C(O)CCCC(=O)N1CCCN(c2ccc(C(F)(F)F)cn2)CC1 | . | -2.1
CCCNc1ncnc2nc[nH]c12 | 8 | .
Cc1cc(C(=O)C(C)OC(=O)c2cccc(-n3cnnn3)c2)c(C)n1-c1ccccc1 (stereo unspecified) | -3 | .
CCOC(=O)/C(C#N)=C/c1ccc(N2CCCCC2)o1 | -84 | -29
O=c1[nH]c2ccccc2cc1CNc1ccccc1 | 17 | -0.9
Cc1cc(=O)[nH]c(SCC(=O)Nc2ccccc2C)n1 | -14 | .
Cc1nn(-c2c(Cl)cc(C(F)(F)F)cc2Cl)c(C)c1C(N)=O | . | 1.3
CCc1ccc(CNC(=O)CN2C(=O)CSc3ncccc32)cc1 | 8 | -2.7
Cc1nc2sccn2c1-c1csc(NCc2ccco2)n1 | 17 | 0.9
COc1cccc(-c2nnc(NC(=O)c3ccc(S(=O)(=O)N(C)C)cc3)o2)c1 | 1 | 3.0
CCOC(=O)C1CCN(c2nc3ccc(Cl)cc3s2)CC1 | . | 3.0
CCOC(=O)c1c(NC(=O)C23CC4CC(CC(C4)C2)C3)sc(C(=O)Nc2cc(C(F)(F)F)ccc2Cl)c1C | . | -1.3
c1ccn2c(SCc3nnc(-c4cc5c(s4)CCCC5)o3)nnc2c1 | -6 | .
O=S(=O)(NCc1ccccn1)c1ccccc1 | 0 | .
O=C1OCCC1Sc1nnc(-c2ccc(Cl)cc2)o1 (stereo unspecified) | 8 | 1.0
O=C(Nc1ccccc1)c1ccc(Br)s1 | 18 | .
COc1ccc(NC(=O)C(NS(=O)(=O)c2ccc3nc(C)sc3c2)C(C)C)cc1OC (stereo unspecified) | 8 | .
FC(F)(F)c1nc(NCc2cccnc2)c2ccccc2n1 | 3 | 1.1
Clc1ccc(CNc2ccc3nnc(-c4ccccc4)n3n2)cc1 | 1 | .
O=C(O)c1ccccc1C(=O)c1ccc(F)cc1 | . | -1.4
O=C(Nc1ccc(Cl)c(Cl)c1)Oc1ccc(NC(=O)c2ccco2)cc1 | -2 | .
CCCCNC(=O)Nc1nnc(C(C)(C)C)s1 | . | -1.1
COc1ccc(/C=C/C(=O)OCc2cc(=O)n3cc(C)ccc3n2)cc1S(=O)(=O)N1CCOCC1 | 0 | .
O=C(COC(=O)c1ccc(Cl)s1)c1ccc2[nH]c(=O)[nH]c2c1 | -13 | .
COc1cc(-c2c(C#N)c(N)nc3sc(C(=O)c4ccccc4)c(N)c23)cc(OC)c1OC | . | 1.9
COC(=O)c1cnc(S(=O)CC#N)n1C (stereo unspecified) | . | -3.9
CCNC(=O)c1ccc2c(c1)N(C)CCS2 | 1 | 8.3
CCN(Cc1ccncc1)C(=S)NCc1ccccc1 | -13 | .
CCOC(=O)Nc1ccc(C(=O)OC)cc1 | 7 | 0.9
Cc1cc(C(=O)COc2ccccc2Cl)c(C)n1Cc1cccs1 | -6 | .
NS(=O)(=O)c1ccc(CNC(=O)C2CCCCC2)cc1 | -32 | .

(more compounds)
smiles | Sa helicase inh | MgrA-DNA mod
Cc1ccc2cc(C)c(NCc3cccnc3)nc2c1 | 18 | 5.2
Fc1cccc(CSC2=NCN(C3CC3)CN2)c1 | . | -0.2
CC(=O)OCC1OC(Oc2ccccc2)C(OC(C)=O)C(OC(C)=O)C1OC(C)=O (stereo unspecified) | 6 | .
O=C(CSc1nnc2n1CCCN2)c1cccs1 | 9 | .
O=C(NCCc1ccccc1)c1ccc2c(c1)N(Cc1ccc(F)cc1)C(=O)c1ccccc1S2=O (stereo unspecified) | 13 | 1.5
O=C(Oc1c(-c2ccccc2)oc2ccccc2c1=O)c1cccnc1 | 1 | 4.2
COc1cc(Cc2cnc(N)nc2N)cc(OC)c1OC | . | -1.1&1.1
C=CCSc1nnc(NC(=O)CSc2nc(CCC)cc(=O)[nH]2)s1 | 6 | 3.1
CCOc1cc2c(cc1OCC)C1C(C(=O)Nc3ccc4c(c3)OCO4)c3ccccc3C(=O)N1CC2 (stereo unspecified) | 32 | .
CS(=O)(=N/C=C(\C#N)S(=O)(=O)c1ccc(C(F)(F)F)cn1)c1ccsc1 (stereo unspecified) | . | -1.5
CC(C)(C)N=Cc1cc(-c2ccccc2)sc1S | 6 | 13
CCOC(=O)c1sc(-n2ncc3c(=O)[nH]cnc32)nc1C | 5 | -2.0
CN(C)Cc1ccc(CSCCNC(=O)Nc2ccc(Cl)cc2)o1 | . | 0.7
NC(=O)C1CN(C(=O)Cc2ccc3c(c2)CCC3)c2ccccc2O1 (stereo unspecified) | -4 | .
O=C(Cn1ncc2c([nH]c3ccccc32)c1=O)N1CCCCC1 | -20 | .
COC(=O)c1ccc(CSc2nncn2C)cc1 | 11 | .
C=CCSc1nnnn1-c1c(C)cccc1C | . | -0.4
CCC1CC(CSc2ncn[nH]2)OC1=O (stereo unspecified) | 11 | 1.1
O=C(NCc1nc(-c2ccccc2Cl)no1)c1cccs1 | 5 | .
CCC(=O)NC(=S)c1c(C)nc2sccn12 | -2 | .
CC(C(=O)N1CCNC1=O)N1CCCC1c1cccs1 (stereo unspecified) | 23 | .
COc1ccc(-n2nc3c(c2NC(=O)c2ccc(S(=O)(=O)N4CCOCC4)cc2)CSC3)cc1 | . | -2.4
COc1c(C(=O)Nc2ccc(Cl)cc2)cnc2c1c(C)nn2C | . | -2.0
CC(Sc1ccc(S(=O)(=O)N2CCN(C)CC2)cn1)C(=O)NCC1CCCCC1 (stereo unspecified) | 21 | .
COC(=O)c1c(C)nc2ccccc2c1C(=O)O | 24 | .
Cc1cc2oc(=O)cc(CN3CCC(C)CC3)c2cc1C | 7 | .
COc1ccccc1COCC(O)CN(Cc1ccco1)Cc1ccccc1O (stereo unspecified) | -24 | .
CN1C(=O)C2(/C(=C(/O)c3ccc(Cl)cc3)C(=O)C(=O)N2CC2CCCO2)c2ccccc21 (stereo unspecified) | 15 | .
O/N=C(\CN1CCCCC1)c1ccccc1 | . | 0.7
O=C(c1cnn2c(C(F)F)cc(-c3ccccc3)nc12)N1CCCC1 | 2 | -0.3
CN1CCN(c2nc3c(c(=O)n(C)c(=O)n3C)n2Cc2ccc(Cl)cc2Cl)CC1 | . | -1.0
CCOc1ccc(-n2c(-c3nn(C)cc3Cl)n[nH]c2=S)cc1 | 9 | 1.4

The list goes on, overlapping the part above by 7 compounds.
smiles | Sa helicase inh | MgrA-DNA mod
Cc1cc2oc(=O)cc(CN3CCC(C)CC3)c2cc1C | 7 | .
COc1ccccc1COCC(O)CN(Cc1ccco1)Cc1ccccc1O (stereo unspecified) | -24 | .
CN1C(=O)C2(/C(=C(/O)c3ccc(Cl)cc3)C(=O)C(=O)N2CC2CCCO2)c2ccccc21 (stereo unspecified) | 15 | .
O/N=C(\CN1CCCCC1)c1ccccc1 | . | 0.7
O=C(c1cnn2c(C(F)F)cc(-c3ccccc3)nc12)N1CCCC1 | 2 | -0.3
CN1CCN(c2nc3c(c(=O)n(C)c(=O)n3C)n2Cc2ccc(Cl)cc2Cl)CC1 | . | -1.0
CCOc1ccc(-n2c(-c3nn(C)cc3Cl)n[nH]c2=S)cc1 | 9 | 1.4
O=C(NCc1cccnc1)c1cn(Cc2ccccc2)nn1 | -7 | 1.5
CCc1c(C#N)sc(C(N)=O)c1CC | . | -1.5
CN1C(=O)c2ccc(S(=O)(=O)c3ccc(C(=O)O)cc3)cc2C1=O | -1 | .
CC1(C)CC(NC(=O)C2CCCCC2)CC(C)(C)N1 | 11 | -1.8
Cc1ccccc1NC(=O)C1Cc2ccccc2C(=O)O1 (stereo unspecified) | 4 | .
CCOC(=O)c1sc2sc(C(=O)c3ccc(Cl)cc3)c(C)c2c1C | . | -1.2
COC(=O)c1cscc1Sc1ccc(Cl)cc1 | . | 0.0
CCc1cccc(NC(=O)CC2SC(N3CCCC3)=NC2=O)c1 (stereo unspecified) | -11 | .

Part of the list above in order of number of heavy atoms, low to high.
smiles | Sa helicase inh | MgrA-DNA mod
CCOC(=O)C1CCN(c2nc3ccc(Cl)cc3s2)CC1 | . | 3.0
CN1OC2C(=O)N(c3ccccc3)C(=O)C2C1c1ccc(F)cc1 (stereo unspecified) | 0 | -1.0
O=C(c1cnn2c(C(F)F)cc(-c3ccccc3)nc12)N1CCCC1 | 2 | -0.3

Taken from above:
Value for CCNC(=O)c1ccc2c(c1)N(C)CCS2 under Sa helicase inh: 1
Value for CCN(Cc1ccncc1)C(=S)NCc1ccccc1 under Sa helicase inh: -13
Value for CC1(C)CC(NC(=O)C2CCCCC2)CC(C)(C)N1 under Sa helicase inh: 11
Value for COC(=O)c1cnc(S(=O)CC#N)n1C (stereo unspecified) under MgrA-DNA mod: -3.9
Value for CC(Sc1ccc(S(=O)(=O)N2CCN(C)CC2)cn1)C(=O)NCC1CCCCC1 (stereo unspecified) under Sa helicase inh: 21

Next section:
smiles | Sa helicase inh | MgrA-DNA mod
CCN1CCC(N(Cc2ccco2)C(=O)Nc2cc(C)cc(C)c2)CC1 | 1 | 0.9
OCCCNc1ncnc2oc(-c3ccccc3)c(-c3ccccc3)c12 | 9 | -1.8
Cc1cccc(CN2C(=O)c3ccccc3S(=O)(=O)c3ccc(C(=O)NCCN4CCCC4)cc32)c1 | 6 | .
COc1ccc(N2C(=O)c3ccccc3NC2c2ccc(OC)c(COc3ccccc3F)c2)cc1 (stereo unspecified) | . | -0.2
Cc1ncc(CO)c2cc(C(=O)Nc3ccccc3)c(=Nc3ccccc3)oc12 | 4 | 0.6
CCOC(=O)c1c(NC(=O)c2ccc(Cl)cc2Cl)sc(C(=O)Nc2ccccc2C)c1C | . | 2.1
O=C1C=CC(=O)N1Cc1cccs1 | . | -4.5
O=C(Cc1cccc2ccccc12)NC1CCCCNC1=O (stereo unspecified) | . | 1.9
CC(=O)N1CCCC1C(=O)O (stereo unspecified) | . | -0.8&2.7
O=C(CCN1C(=O)c2ccccc2C1=O)NC1CCCCCC1 | 18 | .
Cc1[nH]c(=O)[nH]c(=O)c1S(=O)(=O)N1c2ccc(F)cc2CCC1C (stereo unspecified) | 2 | .
Cc1ccc(C2=NN=C(NC(=O)C(F)(F)F)SC2)cc1 | 12 | 0.6
Cc1cc(-c2ccc3ccccc3n2)nc2ccc3ccccc3c12 | -11 | 4.0
COc1ccc(N(C)C(=O)Cc2c(C(=O)O)[nH]c3ccccc23)c(OC)c1 | -32 | .
Cc1cc(C)nc(NC(=O)c2c(C)nc3sccn23)c1 | . | 1.1
O=C(OCC1C(COC(=O)C2CC2)C1(Cl)Cl)C1CC1 (stereo unspecified) | 2 | -0.2
CC(C)C(=O)Nc1cnc2ccccc2c1 | -1 | -2.3
Cc1cccc(CSC2=NCCN2C(=O)c2cccs2)c1 | 20 | .
COc1cccc(OC)c1C(=O)Nc1ccccn1 | 5 | .
O=C(c1oc(=O)c2ccccc2c1-c1ccccc1)N1CCC(O)CC1 | 11 | .
COc1cc(CCC(C)NCc2ccccc2)ccc1O (stereo unspecified) | . | -2.7
O=C(COC(=O)c1c2c(nc3ccccc13)CCCC2)Nc1nc2ccccc2s1 | 5 | -1.5
CN(C1CCCCC1)S(=O)(=O)c1csc(C(N)=O)c1 | . | -1.5
CCOc1ccc(CCNc2ccc3nncn3n2)cc1OCC | 14 | .
COc1ccccc1CN1CC(C(=O)NC2CCCCC2)CC1=O (stereo unspecified) | 10 | 0.4
Cc1oc2cc3c(C(=O)OCCN(C)C)c(C)oc3cc2c1C(=O)OCCN(C)C | -3 | .
CC(NC(=O)CCCc1nnc2n(C)c(=O)c3sccc3n12)c1ccccc1 (stereo unspecified) | -21 | .
O=S1(=O)C=Cc2ccc(NC(=S)Nc3ccccc3C(F)(F)F)cc21 | . | 8.2
CC1=CC2CC1C1C(=O)N(C(C)C(=O)N3c4ccccc4CC3C)C(=O)C21 (stereo unspecified) | 2 | .
C=CCOC(=O)c1sc(NC(=O)c2sc3ccccc3c2Cl)nc1C | 2 | -3.3

Source: PubChem

An excerpt, so the mix of outcomes need not match the whole.
